Screening results as filed in PubChem.
Mtb H37Rv: M. tuberculosis H37Rv growth inhibitors, H37Rv strain (AID 1626); M. tuberculosis H37Rv growth inhibition; higher % means a stronger effect; inhibition, % at 10 µM; hits with a dose series show IC50 in µM; 0.95% of 220,000 active;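 active means confirmed in a dose series; inconclusive means inhibition above 80% but not taken into the dose series; inactive means below 80% or under 30% at every dose of the series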;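 further: bacteria incubated seven days before Alamar blue readout; 0% = bacteria only wells and 100% = bacteria with antibiotic wells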
Arbovirus anti: antivirals against arbovirus infection; arbovirus infection cell-based antiviral screen; inhibition, % at 10 µM; 0.37% of 200,000 active; AID 1251;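 active means inhibition from about 30%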;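 further: bluetongue infection of BSR cells; cell survival read as ATP light after 72 h; 0% = infected wells without compound and 100% = uninfected wells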
Mtb betalactam: beta-lactam sensitization of Mtb H37Rv; 0.27% of 330,000 active; M. tuberculosis H37Rv growth with meropenem, percent inhibition; hits of this screen are not shown here; AID 434955; inhibition, % at 25 µM;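 active means about 74% or more and at least 40 points above the plate without the antibiotic, then above 30% in a dose series; inconclusive means first-round hits that could not be retested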;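 further: growth measured after seven days incubation then overnight dye step; 0% = bacteria only wells and 100% = bacteria with antibiotic; twin plates without the antibiotic show which effects depend on it; some results filed as inactive read as strong as hits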
YopH inh: inhibitors of Yersinia enterocolitica YopH tyrosine phosphatase; AID 898; inhibition, %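 (about 10 µM by stock and volumes)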; 0.16% of 140,000 active; fluorescence Ex485/Em525;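 active means inhibition of 50% or more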;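 further: controls were vehicle for no effect and minimum signal wells for full effect; inactives centre near -20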
RecA intein inh: blocks M. tuberculosis RecA intein splicing | inhibition, %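 (about 9 µM by stock and volumes)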 | AID 2221 | cell-free RecA intein splicing, fluorescence | 0.75% of 290,000 active | P9WHJ3; in the data active means inhibition above about 30%; inconclusive means no clear call, values can overlap the other calls;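 further: 0% = vehicle wells and 100% = reference inhibitor control wells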
Target sequence (P9WHJ3 whole entry, looked up): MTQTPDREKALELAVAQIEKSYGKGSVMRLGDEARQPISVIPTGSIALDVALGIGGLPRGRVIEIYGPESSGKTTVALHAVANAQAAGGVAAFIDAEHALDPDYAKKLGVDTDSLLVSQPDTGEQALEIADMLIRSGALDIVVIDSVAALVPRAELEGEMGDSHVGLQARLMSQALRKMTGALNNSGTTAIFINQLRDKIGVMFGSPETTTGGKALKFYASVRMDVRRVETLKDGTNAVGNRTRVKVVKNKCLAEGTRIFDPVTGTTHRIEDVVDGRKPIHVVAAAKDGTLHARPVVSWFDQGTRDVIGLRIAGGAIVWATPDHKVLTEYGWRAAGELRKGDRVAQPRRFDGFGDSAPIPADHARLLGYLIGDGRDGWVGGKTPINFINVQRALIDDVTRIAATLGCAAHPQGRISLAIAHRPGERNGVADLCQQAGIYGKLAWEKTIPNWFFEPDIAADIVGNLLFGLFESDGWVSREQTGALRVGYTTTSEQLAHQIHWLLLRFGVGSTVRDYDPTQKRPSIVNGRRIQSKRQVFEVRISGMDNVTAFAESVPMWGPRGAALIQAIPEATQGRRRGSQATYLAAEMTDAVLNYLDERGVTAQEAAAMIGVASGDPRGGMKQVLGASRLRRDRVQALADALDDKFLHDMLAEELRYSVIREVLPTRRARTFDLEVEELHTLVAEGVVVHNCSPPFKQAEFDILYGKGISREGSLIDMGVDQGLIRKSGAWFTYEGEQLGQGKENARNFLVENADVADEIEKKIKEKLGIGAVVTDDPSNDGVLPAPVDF
Arbovirus anti repeat: also measured in Arbovirus anti; calls as there; inhibition, %; measured here: 10K subset replicate screen; many hits read low in the repeat;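 first of two repeat runs on a subset; 0% = infected and 100% = uninfected wells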
Numbers without * were called inactive; ? = inconclusive; . = not tested or not shown.

SMILES | Mtb H37Rv | Arbovirus anti | Mtb betalactam | YopH inh | RecA intein inh | others
O=C(CN1CCN(C/C=C/c2ccccc2)CC1)NCc1ccc(Cl)cc1 | 3% | . | -4 | . | 2.1
CCOC(=O)N1CCN(c2ccc([N+](=O)[O-])cc2F)CC1C (centres undefined) | 10% | 9 | 2 | -18 | 5.4
CCN=C(NCC)SC1CC(=O)N(c2cccc(OC)c2)C1=O (centres undefined) | -7% | -1 | 1 | -41 | -2.0 | Arbovirus anti repeat=6
CCOC(=O)c1c(S(=O)(=O)NCC(=O)Nc2ccc(OC)cc2)c(C)n(C)c1C | . | . | 5 | . | 0.2
CCOC(=O)CSc1nc(-c2ccccc2)ns1 | 5.6µM* | 18 | 100 | . | 1.6
CC1CC(C)CN(C(=O)C2CCN(C(=O)Nc3ccccc3)CC2)C1 (centres undefined) | . | . | -12 | . | 0.2
c1ccc(-c2cccc(-c3ccccc3)n2)cc1 | . | . | -5 | . | -2.8
N#Cc1cnn2c(C(F)(F)F)cc(-c3ccccc3)nc12 | . | . | 7 | . | 1.3
Cc1cc(C)c(S(=O)(=O)N2CCC(C(=O)NCc3ccncc3)CC2)c(C)c1 | . | . | -13 | . | 2.4
COc1cc2c(cc1OC)C1=C(C#N)CN(CC(=O)O)CN1CC2 | . | -6 | -7 | . | -3.2 | Arbovirus anti repeat=-2
Cn1c(O)c(N=Nc2ccccc2[N+](=O)[O-])c2ccccc21 | . | . | 6 | . | 1.3
Cc1oc2ccc(Br)cc2c(=O)c1-c1nn[nH]n1 | -3% | 2 | 2 | . | -1.8
COc1ccc(C2C3=C(CC(C)(C)CC3=O)Nc3nc(C)nn32)cc1OC (centres undefined) | 1% | . | 8 | . | -0.6
CCOC(=O)c1c(CC(C)C)csc1NC(=O)COC(=O)C1=NNC(=O)CC1 | . | . | 7 | . | 0.8
Cc1ccc(-n2c(-c3ccccc3)c[nH]c2=S)cc1 | 4% | -2 | -6 | . | 0.2
OC(COc1ccc(Cl)cc1)CN1CCN(c2ccccc2)CC1 (centres undefined) | . | . | 11 | . | -0.9
COc1ccccc1CN1CCCC(CN(CCN(C)C)C(=O)c2ccc(C)cc2)C1 (centres undefined) | . | . | -3 | . | -0.6
Cc1cc(C)cc(C(=O)NCC(=O)OCC(=O)NCc2ccco2)c1 | -2% | 13 | 2 | . | -0.7
O=C(COC(=O)C1CCN(S(=O)(=O)c2cccs2)CC1)c1ccccc1 | 3% | 8 | 2 | . | 0.8
O=C(COc1ccc(Br)cc1CO)Nc1ccc(F)cc1 | 9% | 20 | 9 | -13 | 2.9
COc1cc2c(cc1OC)[C@@H]1Cc3ccc(OC)c(OC)c3CN1CC2 | . | . | -1 | . | 4.9
Cc1cccn2c(=O)c3cc(S(=O)(=O)c4ccccc4)c(=N)n(CC4CCCO4)c3nc12 (centres undefined) | -8% | . | 0 | . | -242
COc1cc2c(cc1NC(=O)CSc1nc3cc(Cl)ccc3s1)oc1ccccc12 | -1% | -30 | 22 | -17 | -2.8
Cc1cccc(Oc2ccc(C(=O)NC3CCSC3=O)cn2)c1C (centres undefined) | -1% | -5 | 6 | -25 | -2.2
CC(=O)N1CCc2cc(S(=O)(=O)N3c4ccccc4CC3C)ccc21 (centres undefined) | -2% | -18 | 5 | -41 | -0.6
CN(C)CCCn1c(SCC(=O)N2CC(=O)Nc3ccccc32)nc2ccccc2c1=O | 1% | -1 | -2 | . | 0.9
COc1ccc(CCNC(=O)C2CCN(c3nn4c(=O)cc(C)nc4s3)CC2)cc1OC | -6% | 5 | -2 | -35 | -0.8
CCOC(=O)c1c(O)c(O)c(C(=O)OCC)n1-c1ccccc1 | -7% | . | -8 | . | 0.4
CS(=O)(=O)c1cccc(C(=O)Nc2ccc3c(c2)OCCCO3)c1 | . | . | 2 | . | 2.5
CC(C)C(NC(=O)c1ccccc1NC(=O)c1ccccc1)C(=O)NCCCn1ccnc1 (centres undefined) | . | . | 0 | . | 0.2
CCOCCCNC(=O)C1(O)c2ccccc2NC(=O)N1c1ccc(Cl)c(Cl)c1 (centres undefined) | . | . | 9 | . | 0.5
COc1ccc(-n2c(C)nc(=O)c(-c3ccccc3)c2C)cc1 | 5% | 10 | -11 | -34 | .
CSc1nc2ccc(S(=O)(=O)N3CCOCC3)cc2s1 | -6% | 3 | 4 | -12 | -1.5
CCN1CCN(Cc2ccc(NC(=O)c3ccc(C)c(NC(=O)c4cccc(-c5cn[nH]c(=O)c5)c4)c3)cc2C(F)(F)F)CC1 | . | . | 46 | . | 3.7
O=C(c1ccc2oc(CCc3ccccc3)nc2c1)N1CCC(O)CC1 | . | . | -4 | . | 0.8
COc1cc(CN2CCCCCC2)cc(OC)c1 | . | . | -2 | . | 1.0
Nc1c(C(=O)N/N=C/c2ccccc2Cl)oc2nc(-c3ccccc3)cc(-c3ccco3)c12 | 2% | . | 4 | . | -16
Cc1ccc(-c2noc(-c3ccccc3C(=O)N3CCCC3)n2)cc1 | 5% | -6 | -3 | -27 | 2.6
COc1ccc(C(=O)Nc2ccc3c(c2)CCCN3C(=O)c2cccs2)c(OC)c1 | . | . | 11 | . | -0.4
CC(=O)N[C@@H](Cc1c[nH]c2ccccc12)C(=O)NC1CCCc2ccccc21 (some centres undefined) | . | . | 1 | . | -1.4
COCCC1CCCCN1C(=O)c1cccc(OC2CCN(S(C)(=O)=O)CC2)c1 (centres undefined) | . | . | 2 | . | -2.0
COc1cccc(C(=O)Nc2ccc(-n3nncc3C(C)(C)C)cc2)c1 | 3% | 7 | 3 | . | 1.0
Cc1c(C(=O)O)sc2ncnc(N3CCCCC3C)c12 (centres undefined) | -8% | 19 | 3 | -24 | 3.0
Cc1cc(NS(=O)(=O)c2ccc(NC(=O)Cc3ccccc3)cc2)nc(C)n1 | . | . | -3 | . | -2.3
Cc1cc(NC(=O)CSc2ccc3nnc(-c4ccc(F)cc4)n3n2)no1 | 5% | -1 | 5 | -53 | 0.8
Fc1cc(F)cc(NC(=S)NCCCN2CCOCC2)c1 | 4% | 3 | 4 | . | 0.9
CCOC(=O)Cc1nn(Cc2nc(-c3ccc(C)cc3)cs2)c(=O)c2ccccc12 | 2% | . | -11 | . | 3.1
Cc1ccccc1NC(=O)Nc1ccccc1N1CCCCC1 | 3% | . | -10 | . | 0.4
CCCCN(C)CCNC(=O)Cn1c(=O)sc2ccccc21 | -3% | -3 | 0 | -41 | 2.2 | Arbovirus anti repeat=2
CN=C1S/C(=C/c2cn(CC(=O)OC)c3ccccc23)C(=O)N1C | 41% | . | 86 | . | -2.4
Cc1ccc(-n2c(CNc3ccc(C)c(Cl)c3)n[nH]c2=S)cc1 | -2% | 4 | 0 | . | 2.1
O=C(c1cccc(C(=O)N2CCN(c3ccc(F)cc3)CC2)c1)N1CCN(c2ccc(F)cc2)CC1 | 5% | 12 | . | -27 | 2.2
COc1cccc(/C=N/NC(=O)CCCc2ccc(OC)c(C)c2)c1 | 7% | -4 | 4 | -11 | 0.8
COc1cccc(-c2nc(-c3ccccc3)no2)c1 | -6% | 0 | 7 | -28 | 2.2
O=C(NCC1CCCO1)C1CCN(S(=O)(=O)Cc2ccccc2)CC1 (centres undefined) | -7% | -4 | -11 | -47 | 1.7
O=C(N/N=C/c1ccc(F)cc1)c1cccc(NC(=O)c2ccc(F)cc2)c1 | . | . | 3 | . | -2.9
CCOC(=O)N/N=C/c1cn(CCCOc2ccc(C)cc2)c2ccccc12 | 9% | 12 | 16 | -21 | 1.0
CCOC(=O)c1c(C)n(C)c2ccc(OC)c(NC(=O)CN3CCC4(CC3)OCCO4)c12 | -1% | -1 | -1 | -12 | 3.0
CCn1nnnc1NCc1cccc(Cl)c1 | 6% | 2 | -1 | . | -0.7
COc1cccc(CN2CCNC(=O)C2CC(=O)NCCCn2ccnc2)c1 (centres undefined) | 6% | . | -12 | . | -0.6
New compounds follow
SMILES | Mtb H37Rv | Arbovirus anti | Mtb betalactam | YopH inh | RecA intein inh | others
COc1ccc2cc(S(=O)(=O)N3CCN(C)CC3)ccc2c1 | 9% | 9 | 2 | -43 | -1.3
O=C(NC1CCCCC1)N(Cc1ccc(F)cc1)Cc1nc2ccccc2c(=O)[nH]1 | 2% | 5 | -14 | -30 | -2.5
COc1cccc(N(C(=O)c2snc(C(N)=O)c2N)C(C(=O)NCC2CCCO2)c2ccc(F)cc2)c1 (centres undefined) | . | . | -3 | . | -8.2
COc1cccc(C2=NOC(C(=O)Nc3cccc(C(C)=O)c3)C2)c1 (centres undefined) | 4% | 2 | . | -30 | -1.4
CC(=O)c1cn(Cc2ccc(F)cc2)c2ccccc12 | . | . | 0 | . | 4.7
O=C(CSCc1ccc(F)cc1)NC1CCCC1 | -9% | 3 | -1 | -23 | -0.6
Cn1c(=NC(=O)c2ccc3c(c2)OCCO3)sc2cc(S(C)(=O)=O)ccc21 | 4% | 10 | 15 | . | -8.1
N=C1S/C(=C\c2ccccc2)C(=O)N1c1ccc(F)cc1 | -6% | -11 | 1 | -43 | -4.2
O=C(CSc1nnc(CN2CCOCC2)n1-c1ccc(Cl)cc1)Nc1ccc2c(c1)OCO2 | -1% | 1 | -4 | -1 | 0.3
COc1ccc(CCN(C)C(=O)CNC(=O)c2ccc3c(c2)OCO3)cc1OC | . | . | 4 | . | -0.1
O=C(CCCSc1nc2ccccc2[nH]1)NC1CCCCC1 | -11% | 9 | 0 | . | .
COC(=O)C1=C(C)N(C)C(=S)NC1c1cc(OC)ccc1OC (centres undefined) | 8% | 0 | 0 | . | 0.0
CCS(=O)(=O)c1nc2ccccc2n1Cc1ccccc1Cl | 0% | 6 | -6 | -21 | 6.0 | Arbovirus anti repeat=1
CCN(CC)CCCNC(=O)CCC(=O)Nc1ccc2nc(N3CCCCC3)cc(C)c2c1 | 0% | -3 | 0 | . | -8.4
CCC1CCC(N2CCN(c3ccccc3F)CC2)CC1 (centres undefined) | . | . | -1 | . | 1.7
O=C(Cc1cccs1)Nc1nnc(-c2ccc(F)cc2)s1 | -1% | 4 | 3 | . | .
O=C1CS/C(=N/N=C/c2ccco2)N1Cc1ccc(F)cc1 | 4% | . | 0 | . | 0.7
CCN(CC(=O)Nc1ccc(OC)cc1)C(=O)CSCC(=O)Nc1ccc(C)cc1 | . | . | -5 | . | -0.3
COc1ccc(NC(=O)N2CCC(n3cnc4ccccc43)CC2)cc1 | 0% | 9 | 5 | . | -2.6
COc1ccccc1Nc1nc(N)nc(CSCCO)n1 | 13% | 10 | -3 | 23 | -3.0
CCOC(=O)Cn1c2c(c(=N)c3c1CCC3)CCC2 | -2% | -6 | -4 | -27 | 0.0
Cc1c(NC(=O)c2cc(-c3ccccc3O)on2)c(=O)n(-c2ccccc2)n1C | . | . | 5 | . | -0.9
COc1cc(C(=O)OCC(=O)N(CC(C)C)C2CCS(=O)(=O)C2)ccc1OCC(C)C (centres undefined) | . | . | 0 | . | 1.3
COc1ccc(CCNc2cn[nH]c(=O)c2Cl)cc1OC | -1% | 3 | 3 | . | -4.7
COc1ccc(NC(=O)CN(C)C(=O)c2cc(-c3cccs3)nn2-c2ccccc2)cc1 | . | . | -6 | . | 0.0
CC(=O)Nc1ccc(S(=O)(=O)Nc2nc3ccccc3nc2Nc2ccc(N)cc2)cc1 | -4% | . | 11 | . | -8.2
O=C(Nc1ccccc1)N1CCC(c2ccccc2)C1 (centres undefined) | 2% | -3 | 7 | -47 | .
CC(=O)c1c(O)c2ccccc2n(Cc2ccccc2)c1=O | . | . | ? | . | -0.7
CCc1noc(C)c1C(=O)N1CCCC(CCC(=O)NCc2cccc(OC)c2)C1 (centres undefined) | -5% | 5 | 0 | . | -0.1
O=C(NCCCN1CCN(c2cccc(Cl)c2)CC1)c1cccc(N2CCCC2=O)c1 | 7% | 3 | 0 | -4 | -2.5
O=C(COc1ccc(F)cc1)Nc1ccc(S(=O)(=O)Nc2ncccn2)cc1 | . | . | -8 | . | -2.3
COc1cc(NC(=O)C2CC2)c(C(=O)O)cc1OC | -7% | 6 | ? | -46 | -0.9 | Arbovirus anti repeat=-2

Part of the list above in order of number of heavy atoms, rising:
SMILES | Mtb H37Rv | Arbovirus anti | Mtb betalactam | YopH inh | RecA intein inh | others
O=C(Nc1ccccc1)N1CCC(c2ccccc2)C1 (centres undefined) | 2% | -3 | 7 | -47 | .
O=C(COc1ccc(F)cc1)Nc1ccc(S(=O)(=O)Nc2ncccn2)cc1 | . | . | -8 | . | -2.3
COc1cc(C(=O)OCC(=O)N(CC(C)C)C2CCS(=O)(=O)C2)ccc1OCC(C)C (centres undefined) | . | . | 0 | . | 1.3
COc1ccc(NC(=O)CN(C)C(=O)c2cc(-c3cccs3)nn2-c2ccccc2)cc1 | . | . | -6 | . | 0.0

These rows are one share of the data. The share of hits here may be higher or lower than overall.
